RECQ1 helicase: inhibitors of human RECQ1 DNA helicase. RECQ1 DNA unwinding, red fluorescence kinetic read. Potency, µM (highest dose often 57.3 µM), without a hit: at the highest dose activity, negative = inhibition, most hits filed as inhibitors. 240,000 tested, 0.54% active;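 note: plate controls were vehicle for no effect and no enzyme for full effect; nearly all actives have a fitted effect of over 30% in size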
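RECQ1T1 50 nM; forked duplex (20 bp + 30-nt ss tails) 200 nM, ATP 2 mM final; pH 8.0, 2 mM MgCl2, 2.5 ug/ml poly(dI-dC); 15 min compound preincubation; discontinuous kinetic read over 2 h at RT.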
TexasRed fluor: Texas Red fluorescence interference in TRb-SRC2 counter-screen; TRb/SRC2 Texas Red total fluorescence interference; Potency, µM (titrated, usually from 106 µM), without a hit: at the highest dose fluorescence change, negative = quenching; 280,000 tested, 0.29% active; active = well fitted curve in either direction with a large enough effect; inconclusive = small, poorly fitted or top-dose-only effect
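Human TRb ligand-binding domain at 0.6 uM with 20 nM Texas Red SRC2 peptide in Tris buffer containing 1 uM T3 and 5% DMSO, incubated with compound 5 h at ambient temperature. Total fluorescence (555/632 nm) calculated as parallel + 2 × perpendicular.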
TRb SRC2 PPI: disrupts binding of human TR beta to SRC2; TRbeta-SRC2 peptide binding, fluorescence polarization; receptor liganded with 1 µM T3; Potency, µM (series often up to 106 µM), without a hit: at the top dose activity change, negative = inhibition, most hits filed as inhibitors; 280,000 tested, 0.065% active; AID 1469;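 note: plate controls were bound peptide for no effect and peptide without receptor for full effect; nearly all actives have a fitted effect of over 50% in size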
Target sequence (P10828 whole entry, looked up): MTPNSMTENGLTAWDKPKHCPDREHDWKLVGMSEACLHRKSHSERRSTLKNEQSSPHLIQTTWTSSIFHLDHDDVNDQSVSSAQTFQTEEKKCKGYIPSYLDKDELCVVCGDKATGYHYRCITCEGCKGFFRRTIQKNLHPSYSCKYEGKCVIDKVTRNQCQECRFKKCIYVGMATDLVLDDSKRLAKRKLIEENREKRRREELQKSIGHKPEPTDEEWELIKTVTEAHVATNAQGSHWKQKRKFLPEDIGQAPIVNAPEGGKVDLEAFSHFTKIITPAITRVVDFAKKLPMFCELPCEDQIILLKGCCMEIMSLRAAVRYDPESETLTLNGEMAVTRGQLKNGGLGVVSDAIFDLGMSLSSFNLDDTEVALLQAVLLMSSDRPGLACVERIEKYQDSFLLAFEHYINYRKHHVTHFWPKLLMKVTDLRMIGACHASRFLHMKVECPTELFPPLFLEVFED
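Assay buffer: 20 mM Tris-HCl, 100 mM NaCl, 10% glycerol, 1 mM EDTA, 0.01% NP-40, 1 mM DTT, 1 uM T3, 5% DMSO; TRb LBD 0.6 uM, Texas Red SRC2 20 nM; FP after 5 hr.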
Lamin A splicing: modulators of lamin A splicing | Potency, µM (doses to about 46.1 µM), without a hit: at the top dose ratio change, negative = inhibition, usual class: inhibitors | 200,000 tested, 0.01% active | HeLa LMNA splicing GFP/RFP minigene ratio, 48 h; active = well fitted inhibition curve with a large enough effect in the signal ratio, with a control signal flat, not every such curve was filed as active; inconclusive = small, poorly fitted or top-dose-only effect, or effect the other way, or a change in a side signal; the % refers to the signal ratio
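S3 HeLa stable clones carrying a lamin A-EGFP splicing minigene plus DsRed2 were seeded at 600 cells/well in Opti-MEM with 2% FBS, pin-dosed and incubated 48 h at 37°C. Acumen cytometry (488 nm) gave the GFP/RFP total-intensity ratio.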
* marks the source's active call; other numbers are inactive results; & = joins results of further samples; [ ] = remark or other dose. Unless noted, calls come from the whole dose curve; as a rule, active = well fitted curve in the direction sought with a large enough effect; inconclusive = small, poorly fitted or top-dose-only effect, or another doubt; inactive = no such curve, though single readings can be large; an effect the other way counts as inactive or inconclusive. Unless noted, % is set by controls: 0 for no effect and ±100 for the full control effect; potency is the fitted concentration of half-maximal effect.

How did O=C(CSc1nnc2c3c4c(sc3ncn12)CCCC4)NCc1ccco1 do in these assays?
RECQ1 helicase: -3%; TexasRed fluor: 0%; TRb SRC2 PPI: -6%; Lamin A splicing: 2%

How did CNC(=O)Oc1ccc2c(c1)[C@@]1(C)CCN(C)C1N2C (some centres not stated) do in these assays?
RECQ1 helicase: -5%&-9%; TexasRed fluor: inconclusive; TRb SRC2 PPI: -9%&5%&6%; Lamin A splicing: -14%

How did CCOC(=O)c1ncn2c1CN(C)C(=O)c1cc(F)ccc1-2 do in these assays?
RECQ1 helicase: -2%&15%&-2%&-1%&-4%; TexasRed fluor: -3%&0%&-12%&-2%&-2%&-2%; TRb SRC2 PPI: 1%&-2%&0%&6%&-6%&2%; Lamin A splicing: inconclusive

Results for CC(C)N1CCN(Cc2cccc([N+](=O)[O-])c2)CC1 ?
RECQ1 helicase: 5%; TexasRed fluor: -1%; TRb SRC2 PPI: -1%

What do the screens show for `CN=C(NC#N)NCCSCc1nc[nH]c1C`?
RECQ1 helicase: -2%&-4%&-2%&9%; TexasRed fluor: 0%&1%&4%&-2%&1%&-6%&-1%; TRb SRC2 PPI: -4%&-5%&-4%&-2%&0%&-4%&-5%; Lamin A splicing: inconclusive

How did COc1ccc(CN2CCN(C(=O)COc3cccc(C)c3)CC2)c(OC)c1 do in these assays?
RECQ1 helicase: -1%; TexasRed fluor: 0%; TRb SRC2 PPI: -17%; Lamin A splicing: 1%

What do the screens show for `COc1ccc(CCCc2nnc(SCC(=O)Nc3ccc(C)c(C)c3)o2)cc1`?
RECQ1 helicase: -1%; TexasRed fluor: -4%&0%; TRb SRC2 PPI: 0%&2%; Lamin A splicing: 14%

Results for COc1ccc(OCC#CCN2CCC(C)CC2)cc1 ?
RECQ1 helicase: -7%; TexasRed fluor: -2%; TRb SRC2 PPI: 6%; Lamin A splicing: 5%[46 µM]

Results for CCC1CN2CCc3cc(OC)c(OC)cc3C2CC1CC1NCCc2cc(OC)c(OC)cc21 (configuration not stated) ?
RECQ1 helicase: 20%; TexasRed fluor: 4%; TRb SRC2 PPI: -3%

What do the screens show for `CC(COc1ccccc1)N(CCCl)Cc1ccccc1` (configuration not stated)?
RECQ1 helicase: 9%&-16%&5%&-12%&0%&-17%; TexasRed fluor: -1%; Lamin A splicing: inconclusive

How did C[C@@H](COc1ccccc1)N(CCCl)Cc1ccccc1 do in these assays?
RECQ1 helicase: 0%[25.9 µM]; TexasRed fluor: 1%[53 µM]; Lamin A splicing: -7%

Results for CNC(=O)Oc1ccc2c(c1)[C@@]1(C)CCN(C)[C@@H]1N2C ?
RECQ1 helicase: -12%; TexasRed fluor: 0%; TRb SRC2 PPI: 3%; Lamin A splicing: 7%

Results for COc1ccc(CN2CCN(C(=O)Cc3ccccc3)CC2)c(OC)c1 ?
RECQ1 helicase: 1%; TexasRed fluor: 0%; TRb SRC2 PPI: -3%; Lamin A splicing: 4%

Results for O=c1[nH]c2ccccc2n1C1CCN(CCCC(c2ccc(F)cc2)c2ccc(F)cc2)CC1 ?
RECQ1 helicase: -8%; TexasRed fluor: -1%; TRb SRC2 PPI: 6%; Lamin A splicing: inconclusive

How did CC(O)(CS(=O)(=O)c1ccccc1)C(=O)Nc1cccc(C(F)(F)F)c1 (configuration not stated) do in these assays?
RECQ1 helicase: -3%; TexasRed fluor: -6%; TRb SRC2 PPI: 3%; Lamin A splicing: 4%

Gathered by group: the compounds so far with fluorine (3)
How did CCOC(=O)c1ncn2c1CN(C)C(=O)c1cc(F)ccc1-2 do in these assays?
RECQ1 helicase: -2%&15%&-2%&-1%&-4%; TexasRed fluor: -3%&0%&-12%&-2%&-2%&-2%; TRb SRC2 PPI: 1%&-2%&0%&6%&-6%&2%; Lamin A splicing: inconclusive

Results for O=c1[nH]c2ccccc2n1C1CCN(CCCC(c2ccc(F)cc2)c2ccc(F)cc2)CC1 ?
RECQ1 helicase: -8%; TexasRed fluor: -1%; TRb SRC2 PPI: 6%; Lamin A splicing: inconclusive

How did CC(O)(CS(=O)(=O)c1ccccc1)C(=O)Nc1cccc(C(F)(F)F)c1 (configuration not stated) do in these assays?
RECQ1 helicase: -3%; TexasRed fluor: -6%; TRb SRC2 PPI: 3%; Lamin A splicing: 4%

Arranged by number of heavy atoms (low to high): three of the compounds above.
How did CCOC(=O)c1ncn2c1CN(C)C(=O)c1cc(F)ccc1-2 do in these assays?
RECQ1 helicase: -2%&15%&-2%&-1%&-4%; TexasRed fluor: -3%&0%&-12%&-2%&-2%&-2%; TRb SRC2 PPI: 1%&-2%&0%&6%&-6%&2%; Lamin A splicing: inconclusive

How did CC(O)(CS(=O)(=O)c1ccccc1)C(=O)Nc1cccc(C(F)(F)F)c1 (configuration not stated) do in these assays?
RECQ1 helicase: -3%; TexasRed fluor: -6%; TRb SRC2 PPI: 3%; Lamin A splicing: 4%

How did COc1ccc(CN2CCN(C(=O)COc3cccc(C)c3)CC2)c(OC)c1 do in these assays?
RECQ1 helicase: -1%; TexasRed fluor: 0%; TRb SRC2 PPI: -17%; Lamin A splicing: 1%

Only part of the results is shown, so the mix of outcomes need not match the whole.
